# Source: PubChem (National Center for Advancing Translational Sciences (NCATS))
# TRPML1 ag = agonists of human TRPML1 channel. 0.12% of 410,000 active. Q9GZU1. activation, % (no concentration beside the values). TRPML1-expressing cells, Ca2+ dye fluorescence, FDSS; host cell line not named in the record; reference of the full effect not given here; in the data active = activation above about 50%; inconclusive = about 30% to 50%; inactive = below about 30%; note: 0% is about no effect; the text of the record puts the active cut at 80%
#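 Calcium fluorescence on an FDSS kinetic reader gave the read-out. Tet-induced TRPML1-DL cells were plated overnight, dye-loaded (Ca8 with quencher, 45-90 min, room temperature, dark), then read 110 s after compound addition, and again 110 s after 4uM final 54-4 (EC80).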
# TRPML1 inh = human mucolipin-1 channel inhibition. activity change, negative = inhibition, % (test concentration not listed). TRPML1-inducible cells, Ca2+ dye fluorescence, FDSS; hits give low values; inhibition of EC80 agonist-evoked calcium signal. 0.02% of 390,000 active. Q9GZU1; in the data active means activity change below about -50%; inconclusive means about -30% to -50%; inactive means above about -30%;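 note: stimulus is agonist 54-4 at its EC80 concentration; % is set by controls: 0 for no effect and ±100 for the full control effect; compound concentration not given in the record; the text of the record puts the active cut at -80%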
#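 Tet-induced TRPML1-DL cells loaded with Ca8 no-wash calcium dye were read kinetically on FDSS. Compound addition was followed by EC80 agonist 54-4 (4 uM final); inhibition was read over 110 s.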
# CtBP-E1A blk = blocks the CtBP interaction with E1A | AlphaScreen GST-E1A/His-CtBP binding, 1536-well; hits give low values; control for the full effect not named in the record | activity change, % (concentration not given with the values) | 0.49% of 340,000 active | AID 651724; in the data active means activity change below about -65%; inconclusive means about -30% to -65%; inactive means above about -30%; note: % is set by controls: 0 for no effect and ±100 for the full control effect
#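 GST-E1A and His-tagged CtBP (125 nM each as 5X stock) were preincubated with pin-transferred compound for 2 h at 37 °C in the dark, then glutathione donor and nickel acceptor beads were added for 1 h before AlphaScreen reading.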
# Six1-Eya2 inh = Six1/Eya2 interaction inhibition; Q15475+O00167; AlphaScreen GST-Six1/His-Eya2 binding, biochemical; hits give low values; control for the full effect not named in the record; activity change, % (test concentration not listed); 0.56% of 360,000 active; in the data active = activity change below about -65%; inconclusive = about -30% to -65%; inactive = above about -30%; note: % is set by controls: 0 for no effect and ±100 for the full control effect; compound concentration not given in the record
#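 Homogeneous AlphaScreen proximity assay pairing GST-Six1 with His-tagged Eya2 (added as 5X mix: 250 nM and 500 nM) in 50 mM Tris pH 8.0, 300 mM NaCl, 1 mM TCEP. Glutathione donor and nickel acceptor beads; 1 h, 37 °C, dark.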
# TRPV1 potentiator = potentiators of human vanilloid receptor 1 (TRPV1); potentiation, % at 8.33 µM; Q8NER1; AID 540277; TRPV1-expressing cells, Fluo-8 calcium influx, capsaicin EC20 potentiation; host cell line not named in the record; control for the full effect not named in the record; 0.02% of 320,000 active; active means potentiation above 80%; inconclusive means 30% to 80%; inactive means below 30%; note: 0% is about no effect
# Target sequence (Q8NER1 whole entry, looked up): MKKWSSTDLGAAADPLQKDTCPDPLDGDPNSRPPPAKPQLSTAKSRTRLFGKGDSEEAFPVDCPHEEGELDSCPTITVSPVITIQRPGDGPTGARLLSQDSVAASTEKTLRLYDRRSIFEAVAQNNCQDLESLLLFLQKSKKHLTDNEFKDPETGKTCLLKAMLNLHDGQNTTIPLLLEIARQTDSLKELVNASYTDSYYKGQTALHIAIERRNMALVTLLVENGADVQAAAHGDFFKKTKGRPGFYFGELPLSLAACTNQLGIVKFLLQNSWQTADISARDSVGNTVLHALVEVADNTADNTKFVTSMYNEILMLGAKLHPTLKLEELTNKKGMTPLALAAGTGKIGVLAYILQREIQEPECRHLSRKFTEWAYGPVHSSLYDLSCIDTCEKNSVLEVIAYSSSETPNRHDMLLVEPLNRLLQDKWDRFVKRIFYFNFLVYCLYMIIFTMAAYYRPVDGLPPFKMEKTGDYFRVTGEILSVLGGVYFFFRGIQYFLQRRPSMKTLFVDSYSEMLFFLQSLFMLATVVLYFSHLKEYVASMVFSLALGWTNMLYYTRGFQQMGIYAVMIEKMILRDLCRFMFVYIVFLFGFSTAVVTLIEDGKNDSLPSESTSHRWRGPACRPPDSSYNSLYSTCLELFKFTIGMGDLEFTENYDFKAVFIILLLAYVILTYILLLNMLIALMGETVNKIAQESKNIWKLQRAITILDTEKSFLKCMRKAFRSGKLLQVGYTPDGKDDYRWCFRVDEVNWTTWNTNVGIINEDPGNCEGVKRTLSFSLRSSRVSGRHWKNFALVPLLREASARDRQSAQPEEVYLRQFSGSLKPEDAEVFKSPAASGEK
#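 Cells expressing TRPV1 were dye-loaded with Fluo-8 and read kinetically: 10 s baseline, 3 min after compound (agonist portion), then 2 min after EC20 capsaicin (allosteric enhancer portion). Calcium-bound dye fluorescence at 480/520 nm.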
# D2 potentiator = potentiates the human D2 dopamine receptor allosterically; P14416; DiscoveRx D2 beta-arrestin cells, luminescence, 90 min; 100% = 57 uM dopamine signal; potentiation, % (no concentration beside the values); 0.23% of 360,000 active; active = potentiation of 50% or more; inconclusive = 30% to 50%; inactive = 30% or less;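 note: compound concentration not given in the record; tested on top of an EC20 dose of dopamine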
#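 D2 cells co-treated with compound plus 50 nM dopamine (EC20) for 90 min at 37 deg C to detect potentiation. Beta-arrestin recruitment was read as enzyme-fragment luminescence after 1 h at ambient temperature. Full response was set by 57 uM dopamine.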
# Numbers without * were called inactive; ? = inconclusive; nt = not tested or not shown.
# Sample of the layout (three entries):
SMILES,TRPML1 ag,TRPML1 inh,CtBP-E1A blk,Six1-Eya2 inh,TRPV1 potentiator,D2 potentiator
CCc1nc(SCC(=O)NCCc2ccccc2)c2c(=O)n(C)c(=O)n(C)c2n1,0.4,11,4,1,2,-9
CCOc1ccc(NC(=O)COc2ccccc2C(=O)NCc2ccccc2)cc1,0.6,1,-7,8,17,-1
CC1=NN(C(=O)c2ccccc2)C(O)(c2ccc(Br)cc2)C1 (stereo not drawn),1.2,33,2,2,-2,-18

# The list itself, from the first entry:
SMILES,TRPML1 ag,TRPML1 inh,CtBP-E1A blk,Six1-Eya2 inh,TRPV1 potentiator,D2 potentiator
CCc1nc(SCC(=O)NCCc2ccccc2)c2c(=O)n(C)c(=O)n(C)c2n1,0.4,11,4,1,2,-9
CCOc1ccc(NC(=O)COc2ccccc2C(=O)NCc2ccccc2)cc1,0.6,1,-7,8,17,-1
CC1=NN(C(=O)c2ccccc2)C(O)(c2ccc(Br)cc2)C1 (stereo not drawn),1.2,33,2,2,-2,-18
Cn1ncc(N=Cc2c(O)ccc3ccccc23)c1C(=O)N1CCOCC1,-0.4,3,6,2,nt,11
Cc1ccc(-c2c3c(=O)n(C)c(=O)n(C)c3cn2CCCN2CCOCC2)cc1,-0.9,13,0,-8,0,-21
CN(CCOc1ccccc1)C(=O)c1cc(S(=O)(=O)N2CCOCC2)c(Cl)cc1Cl,0.2,2,-4,-12,nt,-5
CCCC(C(=O)OCC)P(=O)(c1ccccc1)c1ccccc1 (stereo not drawn),-0.6,3,2,2,-8,-10
COc1ccc(-n2nnnc2SCC(=O)NCc2ccco2)cc1OC,0.9,-10,-4,0,3,1
Cc1[nH]c2ccccc2c1/C=C/c1nc2ccccc2c(=O)[nH]1,0.7,-11,2,-6,19,4
O=C(COC(=O)c1ccc(O)cc1O)Nc1cccc2ccccc12,3.8,11,-3,-4,-14,3
Cc1ccccc1-n1c(SCC(=O)NC2CCS(=O)(=O)C2)nc2ccccc2c1=O (stereo not drawn),-0.8,1,6,2,-2,2
O=C(OCc1ccc(Br)cc1)c1cccc(-c2nnc(-c3ccccc3)o2)c1,-0.8,10,7,8,6,-20
CC(C)(C)NC(=O)C1CC1(c1ccccc1)c1ccccc1 (stereo not drawn),0.6,3,1,6,-19,-4
CCOc1cc2[nH]c(=S)n(Cc3ccc(C(=O)NCCN(CC)CC)cc3)c(=O)c2cc1OCC,-0.9,8,-25,-24,-10,-24
COc1ccc(NC(=O)CN(C)CC(=O)Nc2cccc(C(F)(F)F)c2)cc1,-1.3,0,-10,5,18,-18
CCn1nnnc1SCC(=O)Nc1cc(OC)cc(OC)c1,-1.0,0,-3,1,-1,-2
CC1CC(C)CN(S(=O)(=O)c2ccc3c(c2)CC(C)N3C(=O)C2CC2)C1 (stereo not drawn),-1.1,-14,nt,-2,-10,-18
COCCCn1c(=O)c2ccccc2n(CC(=O)N2CCCc3ccccc32)c1=O,0.8,12,2,8,-2,10
Cn1nc(C(=O)Nc2ccc3c(c2)OCO3)c2ccccc2c1=O,-0.1,-2,-86*,?,2,-9
COc1c(C)cc(Br)cc1C(=O)Nc1cccc(-c2nc3ncccc3o2)c1,0.9,18,?,?,nt,0
CC(C)c1ccc(S(=O)(=O)N2CCN(C(=O)CCc3nc4ccccc4c(=O)[nH]3)CC2)cc1,-1.4,13,-6,-15,nt,-12
CCN(CC(=O)Nc1c(F)cccc1F)C(=O)Cc1c[nH]c2ccccc12,-0.5,-17,9,4,nt,-3
CCOCCCN(C)C1CCN(C(=O)c2oc3ccccc3c2NC(=O)Cc2ccc([N+](=O)[O-])cc2)CC1,-1.0,-5,-14,-3,-9,-39
CC1(C)CC(N(Cc2ccco2)C(=O)Cc2ccccc2)CCO1 (stereo not drawn),-0.9,-14,8,0,3,-21
O=C(c1sc(N2CCOCC2)nc1-c1ccccc1)N1CCCCC1,0.8,21,2,-2,-4,-12
# Next section.
SMILES,TRPML1 ag,TRPML1 inh,CtBP-E1A blk,Six1-Eya2 inh,TRPV1 potentiator,D2 potentiator
Cc1ccc(C2=NC3(CCCC3)NC2=S)cc1,-0.1,-2,4,1,-3,-14
O=C(Cc1ccccc1[N+](=O)[O-])NCc1ccco1,-0.3,10,26,8,-5,-3
Cn1c(-c2ccc(F)cc2)cc2onc(-c3ccccc3Cl)c2c1=O,0.9,24,2,1,?,-11
COC(=O)Nc1nnc(Cc2ccccc2)s1,2.5,-8,6,2,8,-7
CC(=O)N1c2ccc(S(=O)(=O)N3CCC(C(=O)N4CCCCC4)CC3)cc2CC1C (stereo not drawn),-0.7,-26,2,3,-11,0
Cc1c(C)n(C)c2ccc(C(=O)NCCN3CCOCC3)cc12,-0.1,-6,0,1,-11,-47
Cc1cccc(OCCNC(=S)NC(=O)c2cncc(Br)c2)c1,1.1,-4,4,-1,1,-17
O=C(CCS(=O)(=O)Cc1ccccc1)N1CCN(Cc2ccccc2)CC1,0.6,-7,6,6,1,-2
CCOc1ccc(NC(=O)CN(C)C(=O)c2cc(-c3ccco3)nc3ccccc23)cc1OCC,3.3,15,-6,-23,nt,7
NS(=O)(=O)c1ccc(CNC(=O)c2cc(S(=O)(=O)N3CCOCC3)c(Cl)cc2Cl)cc1,-0.3,15,1,-9,13,-4
CCn1ncc(-c2ccnc3cc(C(=O)O)nn23)c1C,0.0,0,1,?,7,4
COCCn1c(=NC(=O)c2ccc3c(c2)OCCO3)sc2cc(S(N)(=O)=O)ccc21,-0.4,-3,nt,10,-16,-12
CC(OC(=O)Nc1cccc(Cl)c1)C(=O)OC1CCCCC1 (stereo not drawn),3.6,-16,23,13,nt,-2
CN1CCN(C(=S)NC(=O)/C=C/c2ccccc2)CC1,-0.4,-8,4,2,0,-9
CC(C)c1ccc(NC(=O)C2Cc3c(-c4ccco4)ccnc3O2)cc1 (stereo not drawn),-0.5,nt,-1,2,nt,-1
O=C1CCC/C=C/C[C@@H](CC(=O)N(CCO)Cc2ccccc2)C(=O)NC[C@H](c2ccccc2)O1,0.1,-3,nt,5,nt,-18
CC(C)C[C@H]1CN([C@@H](Cc2ccccc2)CN2CCC[C@H]2CN2C(=O)C(=O)NC[C@@H]2Cc2ccc(O)cc2)C(=O)C(=O)N1CCc1ccccc1,0.2,nt,-24,-4,nt,nt
CCCCNC(=O)c1onc(CSc2ccccc2F)c1C(=O)O,0.1,-15,nt,-1,11,-8
CCc1nnc(NS(=O)(=O)c2ccc(N=Cc3c(C)[nH]n(-c4cccc(Cl)c4)c3=O)cc2)s1,-0.4,6,-8,?,5,?
Cc1ccc(Nc2nc(-c3sc(C)nc3C)cs2)cc1,3.4,-3,nt,-2,-2,-13
CCN(CC)CC(=O)Nc1ccc(-c2ccc(NC(=O)CN(CC)CC)c(OC)c2)cc1OC,-0.5,1,-2,4,0,-16
C=CCn1c(SCC(=O)NCC2CCCO2)nnc1-c1ccccc1 (stereo not drawn),-0.6,16,nt,6,8,2
O=C(COC(=O)c1cc([N+](=O)[O-])ccc1N1CCOCC1)c1ccc(Br)cc1,0.1,13,-25,-19,3,12
C[N+]1(CC(=O)OCCCc2ccccc2)CCCCC1,0.0,-4,2,3,7,-2
CC1(C)SC(=Nc2ccccc2)N(S(=O)(=O)c2ccccc2)C1=O,0.5,0,8,0,16,-11

# Limited to CtBP-E1A blk and TRPML1 ag (3 entries from above):
mol	CtBP-E1A blk	TRPML1 ag
CCOc1ccc(NC(=O)COc2ccccc2C(=O)NCc2ccccc2)cc1	-7	0.6
CC(C)c1ccc(S(=O)(=O)N2CCN(C(=O)CCc3nc4ccccc4c(=O)[nH]3)CC2)cc1	-6	-1.4
CCCC(C(=O)OCC)P(=O)(c1ccccc1)c1ccccc1 (stereo not drawn)	2	-0.6

# (more compounds)
SMILES,TRPML1 ag,TRPML1 inh,CtBP-E1A blk,Six1-Eya2 inh,TRPV1 potentiator,D2 potentiator
Nc1nc(N2CCN(c3ccccc3)CC2)n[nH]1,0.3,-19,1,-1,9,2
CCNc1ccc(C(=O)OCC)cc1NC(=O)c1cc(S(=O)(=O)N2CCOCC2)ccc1C,0.2,16,2,-1,-3,-11
N#C/C(=C\c1ccc(-c2ccccc2[N+](=O)[O-])o1)C(=O)Nc1nc(-c2cccs2)cs1,0.7,7,?,?,9,-38
O=C(c1sc2cccc(F)c2c1Cl)N1CCN(c2ncccn2)CC1,0.0,-13,5,0,6,-8
CCN(CC)C1=CC(=O)OC12CCCCC2,-0.9,-5,3,-1,10,0
CCCOc1ccccc1NC(=O)CC1Nc2ccccc2NC1=O (stereo not drawn),-0.5,-16,?,-28,-1,6
Cc1cc(N2CCN(C)CC2)nc2ccc(NC(=O)c3ccc4c(c3)OCO4)cc12,0.6,2,-13,-12,11,-26
O=C(Cn1ncc2c([nH]c3ccccc32)c1=O)NCCc1ccc(Cl)cc1,-0.2,-4,nt,1,0,-4
CCCCSC1=C(C#N)C(c2ccccc2C)CC(=O)N1 (stereo not drawn),-0.8,6,3,-3,-2,-2
COc1cccc(NC(=S)NCCC(c2ccccc2)c2ccccc2)c1,5.8,-11,8,0,11,-10
CCN(CC)CCN(C(=O)c1ccc2ccccc2c1)c1nc2ccc(F)cc2s1,-0.5,-1,1,-1,12,-38
Cc1cc(C)n(C(=O)CCCCCCCC(=O)n2nc(C)cc2C)n1,-0.1,-4,7,9,-8,-19
C/C(=C\C(=O)c1cccnc1)Nc1ccc(C(=O)O)cc1,-0.1,13,5,0,3,-18
CCCCOCCCNC(=O)c1cccs1,-0.4,-4,49,20,-9,0
Cc1ccc(C)c(NC(=O)CCN2CCc3ccccc3C2)c1,-0.8,-8,2,-1,-15,-8
CSCCC(NS(=O)(=O)c1ccc(C)cc1)C(=O)NC1CCCCCC1 (stereo not drawn),0.8,-4,6,-4,-2,-21
COc1ccc(C(C)(C)C)cc1NC(=O)CCN1C(=O)NC(C)(C)C1=O,0.3,-8,nt,-1,nt,-1
Cc1cc(C)c(S(=O)(=O)N2CCN(C(=O)c3cc(=O)[nH]c4ccccc34)CC2)c(C)c1,0.6,-14,-7,-3,9,8
Cc1cccc2cc(CN(CCN3CCOCC3)C(=O)Nc3ccccc3F)c(=O)[nH]c12,-0.5,-18,1,7,-6,-8

# Random excerpt: 2 compounds from above
SMILES,TRPML1 ag,TRPML1 inh,CtBP-E1A blk,Six1-Eya2 inh,TRPV1 potentiator,D2 potentiator
CC1(C)SC(=Nc2ccccc2)N(S(=O)(=O)c2ccccc2)C1=O,0.5,0,8,0,16,-11
CCCOc1ccccc1NC(=O)CC1Nc2ccccc2NC1=O (stereo not drawn),-0.5,-16,?,-28,-1,6
